NPYLR7 agonist: mosquito NPYLR7 agonism. HEK293T NPYLR7/Galpha15, GCaMP6s calcium fluorescence. activation, % at 10 µM. 270,000 compounds, 0.15% hits; in the data active = activation above about 40%;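 note: 0% = vehicle and 100% = reference agonist at the receptor; some compounds past the cut are filed as inactive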
NPYLR7 agonist max-min: second read-out of NPYLR7 agonist, no call of its own (marks repeat the call); activation, %; measured here: Max-Min RFU normalised activation; some inactives read as strong as hits;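 span of the calcium signal over five minutes; 0% = vehicle and 100% = native peptide agonist; compound fluorescence can raise it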
Starred values were filed as active, the others as inactive; & = joins results of further samples.

Results follow in this order: NPYLR7 agonist, NPYLR7 agonist max-min
Fc1cccc(-c2nnn3c2nc(NCCc2ccccc2)c2ccccc23)c1
 : -7, -13
CCOC(=O)C1C(=O)C=C(c2cccs2)CC1c1ccc(OCC)cc1 (centres undefined)
 : 8, 11
CN(CCN1CCN(Cn2cc(Cl)cn2)CC1)Cc1ccccc1
 : 2, 1
Cc1nonc1CC(=O)N1CCCC(CCC(=O)N2CCN(c3ccccn3)CC2)C1 (centres undefined)
 : 21, 5
COc1cccc2c1CCN(Cc1cccc(C)c1)C2=O
 : -2, -4
CC(C)C(=O)Nn1cnc2c(cnn2C(C)(C)C)c1=O
 : 4, 2
COc1ccc(NC(=O)c2cncc(C)c2)c(NC(=O)C(C)C)c1
 : 20, 11
CCCC(=O)N1CC2(CCC)CN(C(=O)CCC)CC(CCC)(C1)C2=O
 : 6, 2
CC(C)c1ccc2cc(C(=O)NCC3CCN(C)C3)[nH]c2c1 (centres undefined)
 : 3, 0
CC(NC(=O)c1cc(NC(=O)Nc2ccccc2Br)ccc1N1CCCCC1)c1ccccc1 (centres undefined)
 : -2, 2
O=C(O)c1cc2c(ccc3ccccc32)oc1=O
 : -6, -5
O=C(Cn1c(=O)n(-c2ccccc2F)c(=O)c2ccccc21)NCc1cccc(C(F)(F)F)c1
 : 17, 24
CCOc1ccc2nc(N3CCCC3C(=O)NCCc3ccc(OC)cc3OC)nc(C)c2c1 (centres undefined)
 : 22, 7
O=C(Nc1cccc(NC(=O)N2CCC(CCO)C2)c1)c1ccoc1 (centres undefined)
 : -2, -3
COCCCN(CC(=O)N(CCc1ccccc1)Cc1ccc(C)o1)C(=O)c1ccc(F)cc1
 : -1, 0
CSc1ccc(-c2cccnc2)nn1
 : 8, -4
O=c1c2cnc3nc(-c4ccncc4)nn3c2ccn1C1CCCCC1
 : 5, 10
COc1ccc(/C=C2\C=C(c3ccccc3)N(c3ccc(C)cc3C)C2=O)cc1Br
 : 12, 22
CC(C)(C)c1ccnc(N[C@H]2CO[C@H]3[C@@H]2OC[C@H]3OC(=O)NCc2ccccc2)n1
 : -6, -15
CCN(CC)C(=O)c1ccc(Cl)c(NC(=O)c2ccc(C)[nH]c2=O)c1
 : 11, 10
Cc1c(C)n2c3c(=O)[nH]c(=O)n(C)c3nc2n1C1CC(C)CC(C)(C)C1 (centres undefined)
 : 9, 9
OCCC1CN(Cc2cccnc2)CCN1CC1CCCCC1 (centres undefined)
 : -6, -8
CCOC(=O)c1c(NC(=O)CSc2nnc3ccccn23)sc(C)c1C
 : -2, -6
CC(=O)NCCCCCC(=O)Nc1cccc(Cl)c1F
 : -1, -7
CCc1ccc(C(=O)N2CCC(CC(=O)NC)CC2)cc1
 : 0, -1
Cc1ccc(C)c(NC(=O)CSc2nc3[nH]ncc3c(=O)[nH]2)c1
 : -1, -2
COC(=O)c1ccccc1-c1n[nH]c(CC(C)C)n1
 : 9, 5
CCCc1nc(N2CCCN(C(=O)C3CCCO3)CC2)c2cnn(C)c2n1 (centres undefined)
 : 1, -3
Cc1ccc(C)c(Cn2c(=O)c3c(nc4n(C(C)C)c(C)cn34)n(C)c2=O)c1
 : 9, 10
CN1CN=C(SCc2cccc(Br)c2)NC1
 : 11&8, 6&12
CC(C)=CC(=O)NCCN1CCCCC1
 : 14, 9
CC(C)(C)c1ccc2[nH]c3c(c2c1)CCC/C3=N/N
 : 3, 0
CCOC(=O)c1csc(CN(CCOC)C(=O)Nc2cc(OC)cc(OC)c2)n1
 : -3, 0
Fc1cccc(-c2nnn3c2nc(N2CCCCCC2)c2ccccc23)c1
 : 1, 0
COc1ccc(CCN(C)C2CCCN(Cc3csc(C(C)=O)c3)C2)cc1OC (centres undefined)
 : 4, 0
Cc1nc2ccc(C(=O)N3CCCC(CCC(=O)N(C)CCc4ccccn4)C3)cc2[nH]1 (centres undefined)
 : 3, -2
N#Cc1c(F)cccc1NC1CCCc2c1cnn2Cc1ccccc1 (centres undefined)
 : 0, -2
CCN1CCC(N2C[C@H](NC(=O)c3cccc(-c4ccc(F)cc4)c3)C[C@H]2C(=O)OC)CC1
 : 26, 10
N#Cc1c(N)n[nH]c1CCCNC(=O)C(Cc1ccccc1)NC(=O)c1ccccc1 (centres undefined)
 : 1, -2
CCCCOc1ccc(-c2nc(C=Nc3ccc(C)cc3)c(O)o2)cc1
 : -9, -20
O=C(N/N=c1\oc2ccc3ccccc3c2cc1-c1nc2ccccc2[nH]1)c1ccccc1
 : -8, -15
COc1cc(Cl)c(NC(=O)C=Cc2ccco2)cc1OC
 : 3, 2
CCCNC(=O)NC(=O)COc1ccc(C(C)=O)c(F)c1
 : 4, 6
CN(CCc1ccccc1)C1CCCN(CC(=O)Nc2cnn(C)c2)C1 (centres undefined)
 : 5, 5
CN1CCNC(=O)C12CCN(C(=O)CSc1ccccc1)CC2
 : 0, -2
NS(=O)(=O)c1ccc(Nc2nc(-c3cccs3)cs2)cc1
 : 17, 10
CCCCN1C(=O)c2ccc(C(=O)NCC3COc4ccccc4O3)cc2C1=O (centres undefined)
 : -3, 1
COc1cccc(C(=O)Nc2ccc(-c3c(-c4ccc(C)cc4)nn(-c4cccc(F)c4)c3OC(C)=O)cc2)c1
 : -2, 5
CN(Cc1ccsc1)C(=O)C1CCCN1C(=O)Nc1ccccc1 (centres undefined)
 : -26, -28
CCCCC1(c2ccc(F)cc2)NC(=O)N(Cc2cccc(C#N)c2)C1=O (centres undefined)
 : 2, 1

(list continues)
Results follow in this order: NPYLR7 agonist, NPYLR7 agonist max-min
CCOC1=NN(c2ccc([N+](=O)[O-])cc2)C(=O)/C1=C\c1ccc(F)cc1
 : 1, 8
CCOP1(=O)C=C(C(C)(C)C)OC1c1ccc(F)cc1 (centres undefined)
 : 2, 48
Cc1cc(-n2cccn2)ccc1-c1nccn1CCc1scnc1C
 : 16, 10
O=C(Nc1ccc2oc(-c3cccs3)nc2c1)c1ccccc1F
 : 4, 7
O=c1cc(NCc2nc3ccccc3[nH]2)c2ccccc2o1
 : 8, 3
COCCCNC(=O)C(NC(=O)c1ccc(OC)cc1)C1CCN(C(=O)C2CCCC2)CC1 (centres undefined)
 : 20, 13
O=C(Cc1cccs1)Nc1ccc(N2CCCC2)c(S(=O)(=O)NC2CCCc3ccccc32)c1 (centres undefined)
 : 19, 10
Cc1csc2nc(O)c(C(=O)NCCCN3CCCC3=O)c(=O)n12
 : -2, 27
Cc1cc(NC(=O)COc2ccccc2)n(-c2nc3c(F)cccc3s2)n1
 : -10, -14
Cc1nn(C)cc1NC(=O)C(=O)NCC(C)c1cccs1 (centres undefined)
 : 2, 1
Cc1ccn2c(=O)c(NC(=O)NC3CCCCC3)c(C)nc2c1
 : -4, -5
COc1ccc(CCOC(=O)[C@@H]2CCCN2C(=O)CCC(=O)c2ccc(F)cc2)cc1OC
 : 20, 3
CC1(C)CC(N2C(=O)c3cccc(N4CCCC(C(=O)NCc5nc(-c6ccccc6)cs5)C4)c3C2=O)CCO1 (centres undefined)
 : 3, 1
Cn1nnc(C(O)CN2CCOCC2)n1 (centres undefined)
 : 0, -2
CCOC(=O)c1nn(-c2ccc(F)cc2)c(=O)cc1OCc1c(F)cccc1Cl
 : 10, 8
CC(C)=CC(=O)N1C[C@H](O)[C@@H](N2CCN(C)CC2)C1
 : -3, -5
CCOC(=O)N1CCN(C(=O)Cn2c(=O)n(-c3ccc(C)cc3)c(=O)c3oc4ccccc4c32)CC1
 : -5, -6
Cn1cc(C(=O)N2CCN(C(=O)C34CC5CC(CC(C5)C3)C4)CC2)c2nn(-c3ccccc3)c(=O)c-2c1
 : -1, 0
CCNC(=O)NC(=O)CSc1nnc(-c2ccc(C)cc2)o1
 : -7, -13
COc1cccc(C(=O)N2CCNCC2C(=O)N2CCN(C)CC2)c1C (centres undefined)
 : 10, 9
Cc1ccc([C@@H]2O[C@H](CO)[C@@H](O)[C@H](O)[C@H]2O)cc1Cc1ccc(-c2ccc(F)cc2)s1
 : -4, -5
O=C1OC(c2cccs2)=N/C1=C/c1ccc(OC(F)F)cc1
 : 2, -2
Cc1ccsc1CN(Cc1ccc2c(c1)OCO2)C(=O)CN(C(=O)Nc1cccc(Cl)c1)C1CC1
 : -1, 3
CN1CC2(CCCN(C(=O)c3ncoc3C3CC3)CC2)OC1=O (centres undefined)
 : 5, -1
CC(C)C1CN(C(=O)c2cc(=O)c3ccccc3[nH]2)CCC(=O)N1CC1CC1 (centres undefined)
 : 0, -19
CC(=O)C1=NN(c2ccccc2)C2C(=O)N(c3ccc(Br)cc3)C(=O)C12 (centres undefined)
 : 5, 2
CCOC(=O)C1CCN(C(=O)C(C)Sc2nc(C)c(CC(N)=O)s2)CC1 (centres undefined)
 : -2, 19
Cc1ccc(CC(=O)Nc2nnc(-c3ccc4c(c3)OCCO4)o2)c(C)c1
 : 11, 3
CN(Cc1ccc2nonc2c1)C(=O)c1cccc(CC2CCNCC2)c1
 : 4, 0
Cn1c(C(=O)N2CCC(O)(CO)CC2)cc2c(Cl)cccc21
 : -3, -5
Clc1cccc(Cc2noc(C3CC4CCC3O4)n2)c1 (centres undefined)
 : 4, 5
C=CCOC(=O)C1=C(C)N(C)C(=O)NC1c1ccccc1I (centres undefined)
 : 3, 2
O=C(Nc1c[nH]c2ccccc12)NC1CCCCC1
 : 0, -4
CCOc1cccc(CN2CCC(CCC(=O)NC3CC3)CC2)c1O
 : 1, 2
O=C(CCCSc1nnc(-c2cccnc2)n1Cc1ccccc1)c1ccccc1
 : 0, 3
CC1(C(=O)NS(=O)(=O)c2ccccc2OC(F)(F)F)CCN1C(=O)Cc1ccccc1Cl (centres undefined)
 : 6, 1
CCN(CC)C(=O)c1nc(CC(C)C)nn1-c1ccc2c(c1)OCO2
 : 7, 6
CCOC(=O)C1(CCOC)CCN(CC(c2ccccc2)c2ccccc2)CC1
 : 3, 0
C1CC2CN(c3nc4nonc4nc3N3CCSCC3)CCN2C1 (centres undefined)
 : 7, 12
Cc1ccc(-n2ncc3c(=O)n(NC(=O)c4ccccc4[N+](=O)[O-])cnc32)cc1
 : 0, -2
CCOc1ccccc1N1CCN(C(=O)c2ccccc2N2CCC(NC(=O)C3CC3)CC2)CC1
 : -1, 5
CCCS(=O)(=O)N[C@H]1C[C@@H](c2nc(-c3ccc(OC(F)(F)F)cc3)no2)N(C)C1
 : -10, -19
CC(=O)Nc1cccc(C(=O)NCCS(=O)(=O)N(C)C)c1
 : 0, -2
Cc1ccc(C2c3cccn3CCN2C(=O)NC2CCCCC2)cc1 (centres undefined)
 : 10, 4

28 compounds out of the list, ordered by molecular weight, low to high:
Results follow in this order: NPYLR7 agonist, NPYLR7 agonist max-min
Cn1nnc(C(O)CN2CCOCC2)n1 (centres undefined)
 : 0, -2
O=C(Nc1c[nH]c2ccccc12)NC1CCCCC1
 : 0, -4
CC(C)=CC(=O)N1C[C@H](O)[C@@H](N2CCN(C)CC2)C1
 : -3, -5
Clc1cccc(Cc2noc(C3CC4CCC3O4)n2)c1 (centres undefined)
 : 4, 5
CC(=O)Nc1cccc(C(=O)NCCS(=O)(=O)N(C)C)c1
 : 0, -2
CN1CC2(CCCN(C(=O)c3ncoc3C3CC3)CC2)OC1=O (centres undefined)
 : 5, -1
CCNC(=O)NC(=O)CSc1nnc(-c2ccc(C)cc2)o1
 : -7, -13
O=C1OC(c2cccs2)=N/C1=C/c1ccc(OC(F)F)cc1
 : 2, -2
Cn1c(C(=O)N2CCC(O)(CO)CC2)cc2c(Cl)cccc21
 : -3, -5
Cc1ccc(C2c3cccn3CCN2C(=O)NC2CCCCC2)cc1 (centres undefined)
 : 10, 4
CCN(CC)C(=O)c1nc(CC(C)C)nn1-c1ccc2c(c1)OCO2
 : 7, 6
CCOc1cccc(CN2CCC(CCC(=O)NC3CC3)CC2)c1O
 : 1, 2
C1CC2CN(c3nc4nonc4nc3N3CCSCC3)CCN2C1 (centres undefined)
 : 7, 12
COc1cccc(C(=O)N2CCNCC2C(=O)N2CCN(C)CC2)c1C (centres undefined)
 : 10, 9
CN(Cc1ccc2nonc2c1)C(=O)c1cccc(CC2CCNCC2)c1
 : 4, 0
Cc1ccc(CC(=O)Nc2nnc(-c3ccc4c(c3)OCCO4)o2)c(C)c1
 : 11, 3
CC(C)C1CN(C(=O)c2cc(=O)c3ccccc3[nH]2)CCC(=O)N1CC1CC1 (centres undefined)
 : 0, -19
Cc1ccc(-n2ncc3c(=O)n(NC(=O)c4ccccc4[N+](=O)[O-])cnc32)cc1
 : 0, -2
CCOC(=O)C1(CCOC)CCN(CC(c2ccccc2)c2ccccc2)CC1
 : 3, 0
CCOC(=O)C1CCN(C(=O)C(C)Sc2nc(C)c(CC(N)=O)s2)CC1 (centres undefined)
 : -2, 19
CC(=O)C1=NN(c2ccccc2)C2C(=O)N(c3ccc(Br)cc3)C(=O)C12 (centres undefined)
 : 5, 2
O=C(CCCSc1nnc(-c2cccnc2)n1Cc1ccccc1)c1ccccc1
 : 0, 3
CCOC(=O)c1nn(-c2ccc(F)cc2)c(=O)cc1OCc1c(F)cccc1Cl
 : 10, 8
CCCS(=O)(=O)N[C@H]1C[C@@H](c2nc(-c3ccc(OC(F)(F)F)cc3)no2)N(C)C1
 : -10, -19
Cc1ccc([C@@H]2O[C@H](CO)[C@@H](O)[C@H](O)[C@H]2O)cc1Cc1ccc(-c2ccc(F)cc2)s1
 : -4, -5
CC1(C(=O)NS(=O)(=O)c2ccccc2OC(F)(F)F)CCN1C(=O)Cc1ccccc1Cl (centres undefined)
 : 6, 1
Cn1cc(C(=O)N2CCN(C(=O)C34CC5CC(CC(C5)C3)C4)CC2)c2nn(-c3ccccc3)c(=O)c-2c1
 : -1, 0
Cc1ccsc1CN(Cc1ccc2c(c1)OCO2)C(=O)CN(C(=O)Nc1cccc(Cl)c1)C1CC1
 : -1, 3

Source: PubChem

Not all compounds are listed; the hit share may differ from the screen's.
